Compound activity from PubChem BioAssay.
NS1 function inh: blocks influenza NS1 protein function | S. cerevisiae slowed by influenza A NS1, growth recovery by OD600 | Potency, µM (titrated, usually from 46.1 µM), for inactives: at the highest dose activity, positive = more growth | hit rate 0.4% among 270,000; active means well fitted rising curve with a large enough effect; inconclusive means small, poorly fitted or top-dose-only effect; inactive means no such curve, though single readings can be large or run the other way; further: nearly all actives have a fitted effect of over 50% in size
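Growth recovery, yeast-based: influenza A NS1 expressed in S. cerevisiae causes slow growth, and suppressors are detected by OD600. The parent strain without NS1 is used as positive control.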
Cruzain Triton: blocks cruzain activity in presence of Triton detergent. purified cruzain, Z-FR-AMC fluorescence, 0.01% Triton. Potency, µM, inactives show max response, negative = inhibition, actives largely listed as inhibitors. hit rate 0.43% among 200,000. AID 1478. P25779;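 further: plate controls were neutral wells for no effect and buffer without enzyme for full effect; nearly all actives have a fitted effect of over 40% in size; top concentration of the series not given in the record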
Target sequence (P25779 123-467 limits assumed): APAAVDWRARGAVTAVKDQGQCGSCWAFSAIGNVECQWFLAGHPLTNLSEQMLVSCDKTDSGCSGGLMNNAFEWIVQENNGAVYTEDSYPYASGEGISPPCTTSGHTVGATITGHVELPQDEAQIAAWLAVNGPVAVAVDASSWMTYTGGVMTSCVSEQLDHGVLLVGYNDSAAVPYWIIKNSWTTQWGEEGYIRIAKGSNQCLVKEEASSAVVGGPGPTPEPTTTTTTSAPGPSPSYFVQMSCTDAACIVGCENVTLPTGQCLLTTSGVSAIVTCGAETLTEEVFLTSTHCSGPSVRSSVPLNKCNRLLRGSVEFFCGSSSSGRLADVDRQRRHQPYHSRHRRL
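Steps: dispense cruzain (1.5 nM final) in acetate buffer pH 5.5 with DTT and 0.01% Triton X-100; pin-transfer compounds; incubate 15 min RT; add Z-FR-AMC (2 uM final); read fluorescence every 30 s, using the 60 s intensity change.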
Cruzain noTriton: cruzain (T. cruzi) inhibition without detergent | P25779 | purified cruzain, Z-FR-AMC fluorescence, no detergent | Potency, µM, for inactives: max response, negative = inhibition, most hits filed as inhibitors | hit rate 2.3% among 200,000;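 further: plate controls were enzyme without inhibitor for no effect and buffer without enzyme for full effect; nearly all actives have a fitted effect of over 40% in size; top concentration of the series not given in the record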
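Detergent-free condition (0.00005% Triton X-100) in acetate buffer pH 5.5 with DTT. 1.5 nM enzyme and compound were pre-mixed 15 min, then 2 uM Z-FR-AMC substrate added; reaction progress from fluorescence change between first and third reads (60 s).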
The depositor's hits bear a star; ? = inconclusive; & = joins results of further samples. Unless noted, the call rests on the fitted dose curve; in most records, active means well fitted curve in the direction sought with a large enough effect; inconclusive means small, poorly fitted or top-dose-only effect, or another doubt; inactive means no such curve, though single readings can be large; an effect the other way counts as inactive or inconclusive. Potency means the concentration at half of the fitted maximal effect.

SMILES | NS1 function inh | Cruzain Triton | Cruzain noTriton
C[N@@+]1(Cc2ccc(Cl)c(Cl)c2)CCC[C@@H]1c1ccc[n+](Cc2ccc(Cl)c(Cl)c2)c1 | -5% | -1.8% | 26%
NNc1nncn1N | -3% | -0.3% | 7%
N=C(N)[C@H](N=Nc1ccccc1)C(N)=O | -3% | 1.8% | 9%
C[C@@H](CNC(N)=O)NC(N)=O | 6% | -2.1% | 9%
N=C(N)CCNC(=O)[C@@H]1CCC(N)=N1 | -1% | 3.1% | 7%
CCCCNc1nc(SC)nc2nc[nH]c12 | -8% | 1.9% | 9%
NCCSCCC(=O)O | -6% | 4.8% | -3%
NC(CCl)=N[C@H]1CN2CCC1CC2 | -4% | 2.3% | 15%
CC(=O)[C@@H](C)CCO[C@@]1(C)OCC[C@@H]1C | -3% | -0.6% | 7%
C[C@H](c1ccccc1)N1CCN([C@@H](C)c2ccccc2)CC1 | -3% | 4.8% | 6%
[N-]=[N+]=N[C@@H]1[C@H](O)[C@H](CO)O[C@@H]1n1cnc2c(N)ncnc21 | -9% | 5.8% | 5%
CC(=O)[C@H](C(c1ccccc1)N1CCOCC1)N1CCOCC1 (stereo not given in full) | -5% | 2.7% | 5%
NC(=O)[C@@H]1CCCNC1 | 6% | 4.2% | 7%
Cc1ccc(N=Nc2c(O)ccc3cc(S(=O)(=O)O)ccc23)cc1 | -3% | -14% | ?
NC[C@H]1O[C@@H](n2cnc3c(=O)[nH]c(N)nc32)[C@@H](O)[C@@H]1O | -4% | 4.2% | 5%
O=S(=O)(c1ccc2ccccc2c1)N1CCN(S(=O)(=O)c2ccc3ccccc3c2)CC1 | -3% | 1.8% | 7%
CSc1ccc2c(c1)c(CCN)c(C)n2Cc1ccccc1Cl | 13% | -1.4% | -9%
CC(=O)O[C@@H]1CC[C@]2(C)C(=C[C@@H]([C@@H]3C=C4C[C@@H](OC(C)=O)CC[C@]4(C)C4=C3[C@H]3C[C@@H]5O[C@@]6(CC[C@H](C)CO6)[C@@H](C)[C@@H]5[C@@]3(C)CC4)C3=C2CC[C@@]2(C)[C@H]4[C@@H](C)[C@]5(CC[C@H](C)CO5)O[C@@H]4C[C@H]32)C1 | -32% | -0.5% | 10%
CN1CC[C@H](CN2c3ccccc3Sc3ccccc32)C1 | -7% | -1.5% | 8%
COc1nc(N)nc2c1ncn2[C@@H]1C[C@H](O)[C@@H](CO)O1 | 1% | 5.1% | -4%
O=C(O)c1cccc2cccc(-c3cccc4cccc(C(=O)O)c34)c12 | 4% | 1.3% | 2%
CC(C)(C)C(=O)[C@H](C(c1ccccc1)N1CCOCC1)N1CCOCC1 (stereo not given in full) | -3% | 5.3% | 3%
CC(C)c1nccn1Cc1ccc(Cl)cc1Cl | -3% | 6.1% | 0%
CC1(C)CCC(C)(C)c2c1ccc(O)c2Cc1c(O)ccc2c1C(C)(C)CCC2(C)C | 9% | 4.0% | 2%
O=C1C[C@H]2OCC=C3CN4CC[C@@]5(C(=O)O)[C@H](N1)C2[C@H]3C[C@H]45 (stereo not given in full) | 1% | 0.3% | 4%

More compounds follow.
SMILES | NS1 function inh | Cruzain Triton | Cruzain noTriton
COc1ccc(C=Nc2c(O)ccc3ccccc23)cc1OC | -1% | -1.1% | -4%
Oc1ccc2ccccc2c1CN(Cc1c(O)ccc2ccccc12)C1CCCCC1 | -13% | -1.4% | -12%
O=C(O)CCSc1ncnc2nc[nH]c12 | 3% | 1.0% | 7%
CC(C)(C)c1cc(O)ccc1O | -6% | 3.1%&1.5%&4.7% | 1%&1%&-2%
O=C(O)CC1(C(=O)O)CCCCC1 | 1% | 2.0% | 4%
Nc1ncnc2c([C@@H]3O[C@@H](CO)[C@H](O)[C@@H]3O)nsc12 | -4% | -4.6% | 20%
C[C@H]1CC[C@@]2(NC1)O[C@@H]1C[C@@H]3[C@@H]4CC=C5C[C@@H](O)CC[C@]5(C)[C@@H]4CC[C@]3(C)[C@H]1[C@@H]2C | -52% | -2.9% | -6%
O=C(O)[C@@H](O)c1ccc(F)cc1 | -9% | 1.1% | 4%
Cc1cc[c]([Sb]2[O]C([C@H](O)[C@H](O)C(=O)O)[C@@H](CO)[O]2)cc1 (stereo not given in full) | 2% | 2.6% | 1%
O=C(O)[C@@H]1CCCN1Cc1ccc2c(c1)OCO2 | -6% | 0.0% | 0%
C[C@](O)(c1ccccc1)c1nccc2ccccc12 | 13% | 2.9% | -3%
Nc1ncnc2c1ncn2CCCCC(=O)O | 0% | 1.5% | 10%
NC[C@@H](Cc1ccccc1)P(=O)(O)O | 1% | 4.2% | 0%
Cc1sc2ccccc2[n+]1CCC(=O)O | -1% | 5.1% | -2%
O=C(O)C(Cc1ccccc1)Cc1ccccc1 | -6% | -1.1% | 3%
O=C(O)/C=C\C=C/c1ccc2c(c1)OCO2 | -4% | 0.1% | -3%
O=C(O)CCCCn1cnc2c(=S)nc[nH]c21 | 0% | 3.6% | -2%
C=C(C)CN(CC#N)CC(=C)C | -1% | 2.7% | 6%
c1ccc2sc(SCN(C3CCCCC3)C3CCCCC3)nc2c1 | -7% | -1.8% | 6%
O=C1C2=C(Nc3cc([N+](=O)[O-])ccc3N2)O[C@@H]1c1c[nH]c2ccc(COc3ccccc3)cc12 | 13% | 2.3% | 16%
OC[C@@H]1O[C@@H](n2cnc3c(SCc4ccccc4)ncnc32)[C@@H](O)[C@H]1O | -6% | 3.3% | 1%
CCN(CC(=O)O)CC(=O)O | 0% | 0.2% | 1%
Nc1ccccc1CCCC(=O)O | -1% | 2.3% | -10%
CC1(C)OC[C@@H]2O[C@H](n3cnc4c(N)nc(Cl)nc43)[C@@H](OS(C)(=O)=O)[C@@H]2O1 | -8% | 5.5% | 6%
CCN(CC)COC(=S)S | -20% | 9.7% | 3%

(continued)
SMILES | NS1 function inh | Cruzain Triton | Cruzain noTriton
O=[N+]([O-])c1ccc2ncccc2c1CCc1c([N+](=O)[O-])ccc2ncccc12 | -3% | 1.9% | 1%
NS(=O)(=O)c1cc(Br)c(N=Nc2ccc(O)c3ncccc23)c(Br)c1 | 3% | 5.6% | -5%
O=C(O)[C@H](CCc1ccccn1)c1ccccc1 | 3% | 2.4% | 4%
O=C(N/N=C\c1ccc2c(c1)CCC2)c1ccccc1O | -8% | -0.5% | -11%
COc1ccc([C@@H](C)c2cc3c(cc2O)OCO3)cc1 | -8% | 6.4% | -9%
CN(C)CCCN=C(N)N | -8% | 0.0% | 2%
O[C@H](C[C@@H]1CCCCN1)c1ccc2c(c1)oc1ccccc12 | -3% | 2.3% | 10%
C/C(=N\NC(N)=S)c1ccc[nH]1 | 2% | -4.8% | -8%
O=C(O)C[C@H](Sc1ccccc1)c1ccccc1 | -11% | -2.3% | 2%
CC(CCC(=O)O)(c1cc(Br)c(O)c(Br)c1)c1cc(Br)c(O)c(Br)c1 | -5% | -8.9% | -1%
O=C(C[N+]1(c2ccccc2)CCOCC1)c1ccccc1 | 3% | -0.1% | -14%
CNC[C@@H](SC)c1ccc(O)c(O)c1 | -1% | 11% | 24%
CN[C@H](Cc1ccccc1)c1cccc(OC)c1O | 0% | -0.4% | 6%
CCC1(CCSC(=N)N)C(=O)NC(=O)NC1=O | -5% | 4.0% | 1%
O=C(O)[C@H]1CCCC[C@@H]1C(=O)Nc1nc2ccccc2[nH]1 | -9% | 0.8% | 4%
C[C@H](C(=O)c1ccccc1)C(c1ccccc1)N1CCOCC1 (stereo not given in full) | 0% | 4.6% | 10%
CN(C)CCSCCO | -4% | 2.0% | -2%
c1cc(CSSCc2ccncc2)ccn1 | -38% | 2.8µM* | ?
c1ccc2c[n+](CCCC[n+]3ccc4ccccc4c3)ccc2c1 | 0% | 3.2% | -1%
N=C(N)SCCc1ccncc1 | -8% | -1.5% | 3%
C[N+](C)([O-])Cc1cc(-c2ccccc2)ccc1O | -2% | -0.7% | -5%
O=C(O)[C@@H]1CS[C@@]2(CCCN(Cc3ccccc3)C2)N1 | -5% | -2.9% | -2%
CN(CC(=O)O)Cc1c[nH]c2ccccc12 | 10% | 2.9% | 11%
CCOC(=S)SCC(=O)O | -2% | 2.2% | 5%
O=S(=O)(C[C@H](O)C(Cl)(Cl)Cl)NNc1ccccc1 | -6% | -7.5% | 0%

Carrying on.
SMILES | NS1 function inh | Cruzain Triton | Cruzain noTriton
COc1ccc(C(=O)[C@H](Br)[C@H](Br)C(=O)O)cc1 | -56% | -10% | -23%
O=S(=O)(O)c1cc(O)c2c(N=Cc3ccccc3O)cc(S(=O)(=O)O)cc2c1 | 0% | 1.2% | -5%
O=C(O)[C@@H](O)[C@@H](O)[C@H](O)C(=O)CO | -2% | 1.6% | 3%
CN1CCc2[nH]nc(-c3n[nH]c4c3CN(C)CC4)c2C1 | -1% | -5.1% | 1%
O=C(CN1C(=O)c2ccccc2C1=O)[C@@H](O)CN1C(=O)c2ccccc2C1=O | 0% | -1.9% | -7%
O=c1[nH]c(SCc2c(Cl)c(Cl)c(Cl)c(Cl)c2Cl)nc(=S)[nH]1 | ? | -13% | -2%
Clc1ccccc1C(Nc1ncccn1)Nc1ncccn1 | -8% | 1.0% | 6%
Cc1ccc(S(=O)(=O)O[C@H]2CC(C(C)(C)C)CC[C@@H]2c2ccccc2)cc1 (stereo not given in full) | -3% | 1.4% | -5%
O=c1[nH]c(SCc2cccc([N+](=O)[O-])c2)nc2nc[nH]c12 | -3% | 1.7% | 6%
CCN(Cc1cc(Cl)cc(C)c1O)Cc1c(O)ccc2ccccc12 | -5% | 6.7% | 0%
O=C(O)[C@H](Cc1ccc(O)c([N+](=O)[O-])c1)N1C(=O)c2ccccc2C1=O | -8% | -6.7% | 2%
NC1=NC([S][Hg][c]2ccc(N)cc2)c2ncn([C@@H]3O[C@H](CO)[C@@H](O)[C@@H]3O)c2N1 (stereo not given in full) | -31% | 8.7% | 22%
CS(=O)(=O)N(CC(=O)O)Cc1ccccc1 | 3% | 1.8% | 2%
CC(=O)Nc1ccc2c(c1)/C(=C/c1ccc([N+](C)(C)C)cc1)c1ccccc1-2 | -8% | 1.8% | -9%
CS[C@]12C(=O)C[C@]3(C)[C@@H](CC[C@@]3(O)C(=O)CO)[C@@H]1CCC1=CC(=O)CC[C@]12C | -11% | 0.6% | 0%
S=c1[nH]nc(SCc2ccccc2Cl)c2[nH]cnc12 | -1% | 3.8% | -1%
O=C(O)c1ccc(C(=O)O)c(C(=O)Nc2ccc3c(c2)Cc2ccccc2-3)c1 | -1% | 7.4% | -20%
Cc1c(Cl)cc(C(C)(C)C)c(O)c1Cc1c(C)c(Cl)cc(C(C)(C)C)c1O | -19% | 2.6% | -6%
CCOC(=O)C1=C(C)NC(=O)N[C@@H]1c1coc2cc(C)cc(C)c2c1=O | -23% | -0.9% | -12%
N[C@@H](Cc1ccccc1)P(=O)(O)O | -1% | 2.0% | 7%
NNC(=O)CCSc1ccccc1 | 0% | -1.8% | 6%
NC(N)=NCCCC(=O)O | 3% | -0.8% | 10%
CCOC(=O)C(C)(C)[C@H](O)C(C)C | -5% | 4.2% | -9%

An excerpt. The share of hits here may be higher or lower than overall.
